# Screening data as filed in PubChem.
# CDC25B-CDK2 inh: human CDC25B-CDK2/CyclinA binding inhibition; P30305+P24941; HTRF CDC25B-CDK2/CyclinA binding, anti-His/anti-Flag; hits give high values; z-score (test concentration not listed); 0.72% of 94,000 active; AID 1259370;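 note: score is relative to mean and SD of negative controls; strong numbers were not always called active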
# HIV TAR-Tat: HIV-1 TAR-Tat binding disruption | z-score (test concentration not listed) | HIV-1 TAR RNA, Tat peptide displacement FRET; hits give high values | 0.6% of 100,000 active;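 note: score is relative to mean and SD of negative controls; some compounds called inactive have numbers as strong as hits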
# * hit, by the source's call; . = no result given.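 Rule for the calls: active = z-score from 3 up in half or more of its runs; inactive = the rest.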
SMILES,CDC25B-CDK2 inh,HIV TAR-Tat
COc1ccc(C2SCC(=O)N2CCc2ccc(OC)c(OC)c2)c(OC)c1 (stereo not drawn),-0.39,1.05
CCCCN(CCCC)C(=O)c1cc(S(=O)(=O)N2CCc3ccccc32)cn1C,.,1.08
COc1ccc(-c2noc(NCc3cccc(OC)c3)n2)cc1,.,1.17
CCC(C)NC(=O)c1cccn(-c2ccc(NC(=O)C(C)(C)C)cc2)c1=O (stereo not drawn),.,-0.94
O=C(c1cccs1)N1CCn2c1nc1ccccc12,-1.46,2.29
CCC(=O)N1c2ccccc2CC1C(=O)NCCCN1CCCC1 (stereo not drawn),.,0.94
COc1cc(OC)c(-c2nc3cnccc3n2C)cc1OC,-0.8,.
Cn1ncc2c(Nc3ccc(Cl)cc3)nc(NCCO)nc21,.,0.88
NC(N)=NC(=O)c1nc(Cl)c(N2CCCCCC2)nc1N,0.69,0.35
OCCC1CCCCN1c1ncnc2c1c(-c1ccccc1)cn2-c1ccc(F)cc1 (stereo not drawn),.,0.57
CCCCNC(=O)C1CCCN(S(=O)(=O)N2CCC(C)CC2)C1 (stereo not drawn),.,1.42
COCCCNc1nc(Nc2ccccc2)c2cnn(C)c2n1,.,2.3
O=C1N(Cc2cccc(F)c2)c2ccccc2S(=O)(=O)N1c1ccccc1,.,-0.26
CN1CCN(C(=O)C2CC(c3ccc(F)cc3)=NO2)CC1 (stereo not drawn),-1.15,1.28
Cc1ccc(S(=O)(=O)Nc2ccc3c(c2)nc(CN2CCCC2)n3C)cc1,-1.49,0.11
NC(=O)CSc1nc2nccnc2c(=O)n1Cc1ccc(F)cc1,.,2.74
CC(C)c1cc(C2CCCN2C(=O)C(C)(C)C)no1 (stereo not drawn),.,1.24
CCCCSc1nc2c(c(=O)[nH]1)C(c1sccc1C)C(C(=O)OC(C)C)=C(C)N2 (stereo not drawn),-1.39,1.89
Cc1ccc(CNC(=O)CCCn2ccc3cc(S(=O)(=O)N4CCCC4)ccc32)o1,.,0.43
O=C(c1c(-c2ccccc2)c(-c2ccccc2)n[nH]c1=O)N1CCOCC1,-0.3,1.1
O=C(Nc1cccnc1)C1c2ccccc2C(=O)N(C2CCCC2)C1c1cccs1 (stereo not drawn),.,3.32
CC(=O)N1CCc2c(C)cc(Cl)cc21,-0.72,-0.84
O=C(NCc1ccccc1)N1CCn2c(nc3ccccc32)C1,-1.59,-0.84
Cc1nn(C)cc1CNC(=O)C1C2CCC(O2)C1C(=O)O (stereo not drawn),-1.3,1.69
S=c1[nH]nc(-c2cccc(Cl)c2)n1-c1ccccc1,-1.1,.
Cc1cc2nc(Nc3nc4c(c(=O)[nH]3)CCCC4)nc(C)c2cc1C,0.49,.
CCCC(=O)Nc1cc(=O)n(C)c(=O)n1C,.,1.18
Cc1ccc(S(=O)(=O)N(C)C2CC(C3OCCO3)CCC2O)cc1 (stereo not drawn),-0.5,.
O=C1O/C(=C\c2ccc(O)cc2)C(O)=C1c1ccc(O)cc1,.,3.19
COc1ccc(-c2cnc3c(-c4ccc(OC)c(OC)c4)c(C)nn3c2N)cc1OC,-1.36,0.37
NCCCCCCNS(=O)(=O)c1cccc2c(Cl)cccc12,.,-1.73
Cc1ccccc1-c1noc(-c2nnn(-c3cccc(F)c3)c2C)n1,.,0.2
O=C(c1cc(-c2cccs2)[nH]n1)N1CCN(C(=O)c2ccco2)CC1,.,0.61
Clc1ccc(OCCn2c(/C=C/c3ccco3)nc3ccccc32)cc1,0.11,-5.79
COC(=O)Cc1nc(N2CCN(c3ccccc3)CC2)c2c3c(sc2n1)CCCC3,.,0.77
CCOC(=O)C(CC)Sc1nnc(CSc2nc(C)cc(C)n2)n1-c1ccc(F)cc1 (stereo not drawn),-1.73,-0.18
CCOC(=O)c1oc2cc(O)ccc2c(=O)c1-c1ccc2c(c1)OCCO2,-1.3,0.98
O=C(c1cc2ccccn2n1)N1CCN(c2ccc(Cl)nn2)CC1,-2.17,.
COC(=O)C1=C(C)NC2=C(C(=O)CC(c3ccc(OC)c(OC)c3)C2)C1c1cc(OC)ccc1OC (stereo not drawn),-2.6,0.39
COc1ccc(CCNc2nc(-c3cccc(OC)c3OC)no2)cc1OC,.,0.02
CCOC(=O)C1=NOC2C(=O)N(c3ccc(OC)cc3)C(=O)C12 (stereo not drawn),1.26,1.38
CCSc1nnc2c(n1)OC(c1cc(Cl)ccc1OC(C)=O)N(C(C)=O)c1ccccc1-2 (stereo not drawn),1.36,0.34
Cc1nn(C)c(C)c1CNC(=O)C1CCCN1c1nnc(N2CCCC2=O)s1 (stereo not drawn),.,2.5
O=C1Nc2c(Cl)ccc(Cl)c2C1=O,0.22,.
O=C(Nc1nonc1-c1ccccc1)c1nn(-c2ccc(Cl)cc2)ccc1=O,-1.17,1.42
COc1cccc2c1OCC(NS(=O)(=O)c1cc(Br)cc3c1N(C(C)=O)CC3)C2 (stereo not drawn),.,0.96
CCCC(O)(c1ccc(F)cc1)C(CN1CCCC1)c1ccccc1 (stereo not drawn),0.12,-0.53
CCN(CC)CCCn1c(C)c(C)c2c1ncn1nc(-c3cccnc3)nc21,-1.97,1.78
O=C(Nc1ccc(S(=O)(=O)N2CCOCC2)cc1)c1nn(-c2ccc(F)cc2)ccc1=O,0.57,0
O=C(NCCN1CCOCC1)C(=O)NCc1n[nH]c(=O)c2ccccc12,.,1.49
CCCNC(=O)CSc1nc(-c2cccs2)cc(C(F)(F)F)n1,-1.3,1.07
O=c1c(O)c(NCCc2ccccc2)c1=O,.,-0.84
Cc1ccc(-c2nc3c(c(=O)[nH]2)Cc2cc(Cl)ccc2O3)cc1,-1.3,2.96
C=CCn1c(SCC(=O)N2CCCCC2)nc2sc3c(c2c1=O)CCCC3,-0.68,.
CCN(CC)S(=O)(=O)c1ccc2c(c1)N(CC(=O)N1CCCCC1C)C(=O)CS2 (stereo not drawn),0.42,-1.24
CCCN1C(=O)c2cc3sc(CC)cc3n2CC1(C)C(=O)NC1CCCCC1 (stereo not drawn),-1.92,1.57
O=C(NCc1ccccn1)c1cc(-c2ccncc2)nc2ccccc12,-1.06,.
O=C(Cn1cnc(S(=O)(=O)N2CCCCC2)c1)Nc1ccc2c(c1)OCO2,.,-1.22
CCOC(=O)C(C)Sc1nc(-c2cccs2)nc2c1c(=O)n(C)c(=O)n2C (stereo not drawn),-1.6,.
CCOc1ccc2nc(Nc3nc(C)c(CC)c(=O)[nH]3)nc(C)c2c1,-0.59,2.61

# Of the compounds above, two contain a tert-butyl group.
SMILES,CDC25B-CDK2 inh,HIV TAR-Tat
CCC(C)NC(=O)c1cccn(-c2ccc(NC(=O)C(C)(C)C)cc2)c1=O (stereo not drawn),.,-0.94
CC(C)c1cc(C2CCCN2C(=O)C(C)(C)C)no1 (stereo not drawn),.,1.24

# Remaining list, next part:
SMILES,CDC25B-CDK2 inh,HIV TAR-Tat
Cc1ccc(-c2noc(-c3nnn(-c4ccccc4)c3N)n2)cc1,.,-0.21
O=C(Cn1cnc(S(=O)(=O)N2CCc3ccccc32)c1)Nc1ccccc1F,.,-0.52
CCCN1C(=O)c2oc3cc(C)cc(C)c3c(=O)c2C1c1ccc(C)cc1 (stereo not drawn),0.76,0.87
COc1ccc([C@@H]2CC(=O)c3c(O)cc(O[C@@H]4O[C@H](CO)[C@@H](O)[C@H](O)[C@H]4OC4O[C@@H](C)[C@H](O)[C@@H](O)[C@H]4O)cc3O2)cc1O (stereo partly drawn),.,4.41*
COc1cc(NC(=O)CC(C)S(=O)(=O)c2ccc3c(c2)CCN3C(=O)C2CC2)cc(OC)c1 (stereo not drawn),.,-0.1
O=C1CCc2cc(S(=O)(=O)N3CCC(C(=O)NC4CCCCCC4)CC3)ccc2N1,-0.41,.
Cc1cn([C@H]2C=C[C@@H](CO)O2)c(=O)[nH]c1=O,-0.12,0.43
O=C(Cn1ncn2cccc2c1=O)NCc1ccccc1Br,-1.83,0.72
CCS(=O)(=O)N1CCN(Cc2noc(CCC(=O)N(C)C3CCCCC3)n2)CC1,.,0.8
c1ccc(CNc2ncnc3sc4c(c23)CCCC4)nc1,.,0.48
Nc1nc(CSc2ncccn2)nc(Nc2ccccc2)n1,0.28,2.96
CC(C)c1ccc(NC(=O)C2CC3CCCN3C23C(=O)Nc2ccccc23)cc1 (stereo not drawn),.,1.03
CC(C)(C)c1cn2c3ccccc3n(CCN3CCOCC3)c2n1,0.1,.
Cn1c(=O)c2c(nc(Cl)n2Cc2c(F)cccc2Cl)n(C)c1=O,0.22,-1.33
CSC(=CC(=O)c1ccncc1)SC,-1,.
O=S1(=O)CCC(S(=O)(=O)Nc2ccc(OCc3ccc(Cl)cc3)cc2)C1 (stereo not drawn),-2.99,-0.59
CC1CCN(S(=O)(=O)c2ccc3[nH]ccc3c2)CC1,.,1.72
Cn1c(=O)oc2cc(S(=O)(=O)N3CCCC(C(=O)NCc4ccccn4)C3)ccc21 (stereo not drawn),-0.72,0.83
Cc1ccc2[nH]c(C)c(C(O)CN3CCc4ccccc4C3)c2c1 (stereo not drawn),1.64,-3.1
CC1CN(c2nc(N3CCCCC3)nc(N)c2[N+](=O)[O-])CC(C)O1 (stereo not drawn),.,1.09
Cc1cc2c3c([nH]c2cc1S(=O)(=O)N1CCN(c2ncccn2)CC1)CC(C)(C)CC3=O,.,0.95
Cc1sc2ncnc(SCC(=O)c3cc(C)n(Cc4ccco4)c3C)c2c1C,-1.25,.
O=C1C(=O)N(CCN2CCOCC2)C(c2cccnc2)/C1=C(\O)c1ccc(Br)cc1 (stereo not drawn),-2.01,-0.06
COC(=O)c1cc2occc2n1Cc1nc(-c2ccc(OC)cc2)oc1C,-1.21,-2.07
Cc1cc(C)c(NC(=O)Cn2nc3cnc4ccccc4n3c2=O)c(C)c1,-1.22,-0.5
Cc1csc(NC(=O)CCn2c(=O)sc3ccccc32)n1,-2.44,.
CCC(=O)N1c2ccccc2CC1C(=O)NCCN(C)C (stereo not drawn),.,1.28
CC(=O)c1ccccc1OS(=O)(=O)c1ccc(C)cc1,-3.24,.
CCOc1ccc(/C=C/c2nc(C#N)c(Nc3ccc(OC)cc3)o2)cc1,-1.97,1.52
O=C(Nc1ccc(F)cc1F)c1c[nH]c(=O)n(-c2ccccc2)c1=O,.,0.48
CC1(C)Cc2c(sc3nc4n(-c5ccccc5)c(C(=O)NCc5ccco5)nn4c(=O)c23)CO1,-0.34,1.27
CCc1ccc(C2=Nn3c(nnc3-c3cccc(OC)c3)SC2)cc1,.,-0.09
CCN(CC)c1ncnc2c1cnn2C,.,1.68
CCCSc1nnc(-c2nonc2NC(C)=O)n1CC,-1.33,-0.05
O=C(O)CC(Cc1ccccc1)c1ccc2c(c1)OCO2 (stereo not drawn),-1.52,.
COc1cc(-c2nc(-c3ccc(Cl)cc3)no2)cc(OC)c1OC,-0.55,.
S=C1NCN(Cc2ccccc2)CN1CC1CCCO1 (stereo not drawn),-0.22,.
CSc1nc(C)c(Cc2c(F)cccc2Cl)c(=O)[nH]1,0.21,.
CCN1CCN(c2nc(N)c([N+](=O)[O-])c(N3CCCC(C)C3)n2)CC1 (stereo not drawn),.,0.46
CCOc1ccc(C2=Nn3c(nnc3-c3ccc4c(c3)OCO4)SC2)cc1Cl,0.54,.

# Look-ups from above.
# Reading for S=C1NCN(Cc2ccccc2)CN1CC1CCCO1 (stereo not drawn) in CDC25B-CDK2 inh: -0.22
# Reading for Cc1cc(C)c(NC(=O)Cn2nc3cnc4ccccc4n3c2=O)c(C)c1 in HIV TAR-Tat: -0.5
# Reading for CCCSc1nnc(-c2nonc2NC(C)=O)n1CC in CDC25B-CDK2 inh: -1.33
# Reading for O=C(O)CC(Cc1ccccc1)c1ccc2c(c1)OCO2 (stereo not drawn) in CDC25B-CDK2 inh: -1.52

# Other structures
SMILES,CDC25B-CDK2 inh,HIV TAR-Tat
O=C(Cn1c(=O)oc2ccccc21)N(Cc1cccs1)C1CCCC1,.,2.36
CC1(C)Cc2cccc(OCCNC(=O)c3cnccn3)c2O1,-1.86,1.01
CN(C)/C=C/C(=O)c1cc(F)cc(F)c1O,-0.53,.
CCOC(=O)c1ccc(N2C(=O)c3scc(-c4ccc(Cl)cc4)c3S2(=O)=O)cc1,-0.56,1.07
CCCCCn1c(CN2CCN(c3ccccc3F)CC2)nc2c1c(=O)n(C)c(=O)n2C,-0.94,0.63
CN(C(=O)CSc1nnc(-c2cccs2)o1)C1CCCCC1,-1.48,1.25
Cn1cnc2c(nnn2Cc2ccc(Cl)cc2)c1=O,-0.18,.
COc1ccc(C2C(C#N)=C(N)OC3=C2C(=O)CC(c2ccc(C)cc2)C3)cc1 (stereo not drawn),0.55,.
O=C(CSc1nn2c(=O)cnnc2s1)N1CCc2ccccc21,-1.43,-0.86
CC1=C(C(=O)OCC(C)C)C(c2cccc(F)c2)C2=C(CC(c3ccccc3)CC2=O)N1 (stereo not drawn),-0.09,1.04
CCOc1nc2cccnc2n(Cc2cc(=O)n3ccccc3n2)c1=O,.,0.63

# Among those listed so far, these have bromine.
SMILES,CDC25B-CDK2 inh,HIV TAR-Tat
COc1cccc2c1OCC(NS(=O)(=O)c1cc(Br)cc3c1N(C(C)=O)CC3)C2 (stereo not drawn),.,0.96
O=C(Cn1ncn2cccc2c1=O)NCc1ccccc1Br,-1.83,0.72
O=C1C(=O)N(CCN2CCOCC2)C(c2cccnc2)/C1=C(\O)c1ccc(Br)cc1 (stereo not drawn),-2.01,-0.06

# Complete entries as entered above. Screens in order: CDC25B-CDK2 inh	HIV TAR-Tat
# CC1=C(C(=O)OCC(C)C)C(c2cccc(F)c2)C2=C(CC(c3ccccc3)CC2=O)N1 (stereo not drawn) as listed: -0.09	1.04
# CC1(C)Cc2cccc(OCCNC(=O)c3cnccn3)c2O1 as listed: -1.86	1.01
